# T cruzi repl: T. cruzi replication inhibition. T. cruzi beta-gal in NIH3T3, luminescence, 90 h. inhibition, % (no concentration beside the values). hit rate 1.4% among 300,000. AID 1885;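 active = mean inhibition across valid replicates above about 55%, limit read from the data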;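 note: signal also drops with host cell toxicity which is not excluded here; 0% = plate median of DMSO wells and 100% = zero luminescence signal; higher percent means less beta-gal luminescence so fewer parasites; stock transfer was 50 nL into about 50 µL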
# A1 inh: inhibitors of the anti-apoptotic protein A1, read as caspase activation; MEF A1-2A-BIM cells, Caspase-Glo 3/7 luminescence, 3 h; percent of clofoctol response, vehicle zero; caspase activation, % (test concentration not listed); hit rate 0.066% among 330,000; AID 2462;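 active = over half of replicate activation scores above 10%, or exactly half above 10 with the replicate mean above 10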;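 note: wells of about 30 µL received 50 nL stock; many hits fall short of the cut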
# UCH37 DUB inh: blocks the human deubiquitinase UCH37. purified proteasome/UCH37, Ub-AMC cleavage fluorescence. Q9Y5K5. hit rate 0.33% among 330,000. inhibition, % (no concentration beside the values);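 active = mean of two replicates above 20%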;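 note: 0% = compound-free wells with enzyme and 100% = wells lacking proteasome; stock transfer was 100 nL into about 20 µL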
# Target sequence (Q9Y5K5 whole entry, looked up): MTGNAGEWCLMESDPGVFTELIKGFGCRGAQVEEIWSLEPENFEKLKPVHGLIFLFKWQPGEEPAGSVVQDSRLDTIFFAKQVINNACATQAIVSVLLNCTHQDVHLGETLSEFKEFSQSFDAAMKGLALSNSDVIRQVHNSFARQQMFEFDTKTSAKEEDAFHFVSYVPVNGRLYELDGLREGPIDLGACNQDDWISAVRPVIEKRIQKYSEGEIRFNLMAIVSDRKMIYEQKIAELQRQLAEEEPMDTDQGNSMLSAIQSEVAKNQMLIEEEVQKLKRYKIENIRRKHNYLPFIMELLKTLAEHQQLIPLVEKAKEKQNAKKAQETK
#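 Material: human UCH37 enzyme supplied as purified proteasome complex. Measure: % inhibition of Ub-AMC cleavage fluorescence. Medium: pH 7.4 Tris-HCl (50 mM) with ovalbumin, ATP-MgCl2, DTT. Times: 30 min preincubation with enzyme, 25 min cleavage at room temperature. Detection: AMC fluorescence intensity at 355/460 nm.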
# FGF22 binding: FGF22 (human) thermal shift binding. Q9HCT0. calls only at 9.99 µM. recombinant FGF22 thermal shift, SYPRO orange fluorescence; percent of sucrose octasulfate shift, DMSO zero. hit rate 1.5% among 340,000;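 active = melting point raised past a set limit in the mean and every replicate; three in four hits are not shown here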
# Target sequence (Q9HCT0 whole entry, looked up): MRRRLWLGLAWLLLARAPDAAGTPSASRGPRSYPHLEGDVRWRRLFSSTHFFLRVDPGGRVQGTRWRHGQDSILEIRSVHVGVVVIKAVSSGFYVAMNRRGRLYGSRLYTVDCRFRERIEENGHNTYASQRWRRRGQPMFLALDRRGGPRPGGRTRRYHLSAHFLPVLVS
# Ecoli growth: E. coli growth inhibition | Escherichia coli growth, OD600, 23 h; active compounds read low | OD600 absorbance (test concentration not listed) | hit rate 0.21% among 330,000 | AID 1053175;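 active = OD600 absorbance below the run mean of sample wells minus 3.6 SD, in any replicate, cut at about 0.56 in these data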;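 note: stock transfer was 300 nL into about 60 µL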
# MLL AF4-AF9 inh: inhibitors of human MLL-AF4/AF9 interaction; P42568; AlphaScreen, biotin-AF4 peptide binding to FLAG-AF9; inhibition, % at 10 µM; hit rate 0.47% among 350,000; AID 651704;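 active = every replicate reaching a set inhibition limit, whatever the replicate mean, cut at about 25% in these data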;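 note: 0% = plate neutral control median and 100% = total signal loss; the record names both 10 and 1 µM as test concentration; the first replicate is given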
# Target sequence (P42568 whole entry, looked up): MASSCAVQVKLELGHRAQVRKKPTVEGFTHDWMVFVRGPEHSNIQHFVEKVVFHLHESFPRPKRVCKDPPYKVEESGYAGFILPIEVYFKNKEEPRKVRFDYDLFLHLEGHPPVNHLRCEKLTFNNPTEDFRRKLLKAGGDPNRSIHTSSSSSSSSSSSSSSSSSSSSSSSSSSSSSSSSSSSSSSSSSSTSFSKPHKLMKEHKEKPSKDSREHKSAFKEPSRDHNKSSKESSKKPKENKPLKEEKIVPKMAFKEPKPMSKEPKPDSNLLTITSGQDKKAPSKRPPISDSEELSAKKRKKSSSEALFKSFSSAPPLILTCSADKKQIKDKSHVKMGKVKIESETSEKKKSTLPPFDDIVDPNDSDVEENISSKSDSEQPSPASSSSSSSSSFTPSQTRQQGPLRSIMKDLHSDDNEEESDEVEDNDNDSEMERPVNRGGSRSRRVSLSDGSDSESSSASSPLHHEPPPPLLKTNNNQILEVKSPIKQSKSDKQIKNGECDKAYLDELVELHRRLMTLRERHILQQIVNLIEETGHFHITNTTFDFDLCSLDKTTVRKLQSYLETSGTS
# Beta cell apopt: beta cell apoptosis inhibition; INS-1E cytokine-induced death, ATP luminescence, 48 h; percent of positive-control rescue, neutral wells zero; protection from apoptosis, % (concentration not given with the values); hit rate 0.8% among 300,000;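 active = all replicates at 75% or more, or half of them and the mean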;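 note: 0% = cytokine-treated negative control wells and 100% = positive control rescue; higher means more ATP so stronger rescue from cytokine killing; wells of about 40 µL received 100 nL stock; the first replicate is given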
# Ecoli rRNA inh: selective bacterial rRNA inhibition in E. coli; GFP signal change (wild-type ribosome), % (concentration not given with the values); hit rate 1.6% among 350,000; E. coli WT GFP vs humanized-ribosome RFP mutants, fluorescence, 24 h; active compounds read low; DMSO median 0, no signal -100;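 active = significant combined selectivity score with lowered wild-type GFP, culture density cut under 30%, mutant RFP and density less affected; inactive = any of these conditions unmet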; note: one replicate is shown; some compounds called inactive have numbers as strong as hits
# Ecoli rRNA inh OD600: second read-out of Ecoli rRNA inh, no call of its own (marks repeat the call); OD600 change, %; measured here: OD600 growth;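 optical density of the mix in the first replicate; 0 = DMSO median and -100 = no signal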
# Ecoli rRNA inh RFP: second read-out of Ecoli rRNA inh, no call of its own (marks repeat the call); RFP signal change, %; measured here: RFP humanized mutant strains;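 first replicate; 0 = DMSO median and -100 = no signal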
# * marks the source's active call; other numbers are inactive results; i = inactive; nt = no result given. Only part of the results is shown. The share of hits here may be higher or lower than overall.
SMILES,T cruzi repl,A1 inh,UCH37 DUB inh,FGF22 binding,Ecoli growth,MLL AF4-AF9 inh,Beta cell apopt,Ecoli rRNA inh,Ecoli rRNA inh OD600,Ecoli rRNA inh RFP
COc1cccc(-c2nc(CS(=O)(=O)CC(=O)N3CCOCC3)c(C)o2)c1,-10,-1.3,5.5,i,0.68,0.1,-4,15,15,2.6
COc1ccc(CCNc2ccc(C)cc2)cc1,1,0.4,1.0,nt,0.7,nt,1,nt,nt,nt
COc1ccc(NC(=O)CN2C(=O)/C(=C3\SC(=S)N(CCC(=O)O)C3=O)c3ccccc32)cc1,1,0.8,4.7,nt,0.7,nt,1,nt,nt,nt
CC(C)n1cc(-c2nc(C(=O)NN)cs2)c(=O)n(Cc2ccccc2)c1=O,-13,0.2,5.1,i,0.65,0.6,-10,-7,-6,5.1
O=C(Nc1cccc([N+](=O)[O-])c1)C1CCN(C(=O)Cc2ccccc2)CC1,9,1.1,8.9,i,0.71,3.2,-1,-3,4,0.4
CCOc1ccc(Cc2nnc(SCC(=O)Nc3ccc(OC)cc3)n(N)c2=O)cc1,-5,0.1,5.6,i,0.68,-0.9,-2,2,13,5.7
C=CCn1c(SCC(=O)c2cc(C)n(C)c2C)nnc1-c1ccncc1,-10,0.6,2.0,i,0.69,2.2,7,6,5,3.2
Cc1ccc(N2C(=O)c3ccccc3C2C(=O)c2ccc(C)c(C)c2O)cc1 (centres undefined),29,0.4,4.7,i,0.66,-2.7,3,-9,7,-0.6
Cc1sc2ncn(CC(=O)OCC(=O)NC(C)(C)C)c(=O)c2c1C,-7,-0.3,3.4,nt,0.71,nt,0,nt,nt,nt
CN(C)c1nc(NN)nc(Nc2ccc(F)cc2)n1,12,0.6,0.9,i,0.66,-4.8,-1,-15,1,1.5
CCOc1ccc(C(C)=O)cc1COC(=O)c1cccnc1SC,11,0.3,-1.2,i,0.68,-12,1,-2,6,4.7
O=C(OCC(=O)N1CCCc2ccccc21)c1cc(S(=O)(=O)N2CCOCC2)ccc1F,23,0.6,3.7,nt,0.63,1.0,-4,2,4,-1.7
CCCn1nnc(NC(=O)C(C)Oc2ccc(Cl)cc2Cl)n1 (centres undefined),2,0.9,5.1,nt,0.66,nt,-6,nt,nt,nt
COc1cc(C(=S)N2CCOCC2)ccc1OS(=O)(=O)c1ccccc1[N+](=O)[O-],-15,-0.5,4.2,i,0.69,2.7,-1,-3,-5,-0.5
Cc1cc(N2C(=O)CCC2=O)ccc1NC(=O)c1cccs1,-15,0.5,-1.4,nt,0.73,nt,-2,nt,nt,nt
CC(=O)Nc1nnc(SCC(=O)c2ccc(F)cc2)s1,-20,-1.1,0.9,i,0.67,-0.5,-1,-2,0,-1.0
CCOC(=O)COc1ccc(Br)cc1/C=C\c1[nH]c(=O)[nH]c(=O)c1[N+](=O)[O-],-22,0.6,18,i,0.73,-2.1,-2,nt,nt,nt
CCOc1ccc(C(=O)COc2ccc(NC(C)=O)cc2)cc1,5,0.2,2.4,nt,0.66,nt,2,nt,nt,nt
COc1ccc(-c2cc3nc(C)c(CCC(=O)NCc4ccc(F)cc4)c(C)n3n2)c(OC)c1,60*,0.3,-85,nt,0.72,1.1,10,10,8,0.1
COc1ccc(-c2sc3cc4c(cc3c2C#Cc2cncn2C)OCO4)cc1,nt,-0.6,-3.0,i,0.66,5.9,-3,3,10,-0.3
COc1ccccc1CNC(=O)N1CCN(S(=O)(=O)c2ccc(Cl)cc2)CC1,5,0.3,6.2,i,0.65,1.5,2,5,3,-0.9
C/C(CC(=O)Nc1ccc(Cl)c(C(F)(F)F)c1)=N\NC(N)=S,19,-0.1,nt,i,nt,-2.2,1,-34,-42,16
CCn1cc(C(=O)NCc2ccc(C)cc2)c(=O)c2cc(S(=O)(=O)N(C)C)ccc21,6,0.2,2.1,i,0.68,-3.4,-2,7,19,0.5
CCC(CC)N1CCN(S(=O)(=O)c2ccc(OC)cc2)CC1,-32,0.6,0.2,i,0.64,-4.9,-8,6,-2,-5.8
CN(C(=O)COc1ccc([N+](=O)[O-])cc1)C1CCS(=O)(=O)C1 (centres undefined),-1,-2.2,nt,i,nt,-1.5,-1,13,14,2.7
CCCSc1nc(N2CCOCC2)c2c(c1C#N)CC(C)(C)SC2,16,0.1,3.8,nt,0.76,nt,nt,nt,nt,nt
Cc1ccc(NCC(=O)N/N=C/c2cccn2C)cc1,9,-0.2,nt,i,nt,7.3,5,-5,2,-0.6
O=C(NCCN1CCN(c2ccccc2)CC1)Nc1ccccc1Br,24,1.0,0.8,i,0.64,7.0,-1,1,7,1.0
CCc1nc(NCc2ccccc2)c(C#N)c2c1CCCC2,0,-0.7,-5.1,i,0.69,0.8,-1,13,16,-0.3
COc1cccc([C@@H]2CC=C(C(=O)O)[C@H](c3ccccc3F)N2S(=O)(=O)c2ccc(C)cc2)c1,nt,0.5,4.1,i,nt,1.5,0,-12,9,-0.3
Cc1ccc(NC(=O)C2CCN(S(=O)(=O)c3ccc(Cl)c(C(F)(F)F)c3)CC2)nc1,25,-0.4,4.8,i,0.7,8.3,7,-4,-1,-3.4
CCOc1ccc(-n2c(C)nc3cc(C(=O)NCc4ccc5c(c4)OCO5)ccc32)cc1,-2,-0.1,1.2,i,0.71,1.4,8,nt,nt,nt
Cc1onc(-c2ccccc2Cl)c1C(=O)NCc1nc(-c2ccc(C(F)(F)F)cc2)no1,15,-0.2,0.7,i,0.61,-7.3,5,-14,12,-3.6
CCOc1cc(Br)ccc1S(=O)(=O)NCc1ccccc1,-29,0.3,0.4,i,0.66,-40,3,-36,-41,-16
COCCOC(=O)c1c(C)nc(SCC(=O)Nc2ccc(C)cc2)c(C#N)c1-c1ccco1,45,0.5,2.0,nt,0.74,nt,9,nt,nt,nt
O=S(=O)(NCC(c1ccco1)N1CCCCC1)c1cccc(C(F)(F)F)c1 (centres undefined),nt,0.8,-0.4,i,0.65,0.1,-2,nt,nt,nt
O=C(CCC(=O)Nc1ccccc1)NNC(=O)c1ccccc1Cl,-7,2.5,4.1,i,0.68,0.5,-6,15,20,0.5
CCOC(=O)C(C)n1cnc2c(nnn2Cc2ccc(C)cc2)c1=O (centres undefined),3,0.4,2.7,nt,0.69,nt,-2,nt,nt,nt
COc1ccc(Nc2nc(N)nc(CSc3nc(C)cc(C)n3)n2)cc1,-1,-0.8,-0.7,i,0.7,1.1,-7,-18,-14,-3.8
Cc1nn(C)c(C)c1S(=O)(=O)NC1CCCC1,-5,-0.8,2.1,nt,0.71,nt,nt,nt,nt,nt
CSc1ccccc1NC(=O)CN(C)C(=O)c1ccc2c(c1)OCCO2,-5,-0.2,nt,i,nt,-1.8,-2,2,10,-1.2
CC(=O)c1cccc(Oc2cc(NN3CCCCC3)c([N+](=O)[O-])cc2[N+](=O)[O-])c1,16,-0.2,5.8,i,0.68,11,9,10,1,0.0
Clc1cc(Cl)cc(C2=NCCC(c3ccccc3)O2)c1 (centres undefined),-8,-0.3,-1.4,nt,0.64,nt,-3,nt,nt,nt
COCCNC(=O)C(NC(=O)C1CCCCC1)C(C)C (centres undefined),-7,1.0,1.5,i,0.67,-3.0,-3,7,3,7.3
Cc1ccc(NC(=O)COC(=O)CNC(=O)c2ccc3ccccc3c2)c([N+](=O)[O-])c1,2,-0.7,nt,i,nt,-1.6,-4,5,-15,2.6
Cc1ccc(-c2ncccc2OC(=O)C23CC4CC(CC(C4)C2)C3)cc1,-3,0.0,-2.8,nt,0.68,nt,-1,nt,nt,nt
Cc1ccc(-n2c(=O)c(C#N)cc3c(=O)n4ccccc4nc32)cc1C,-22,-0.2,i,nt,0.72,nt,0,nt,nt,nt
CCOC(=O)N1CCN(C(=O)c2cn(C)c3ccc(S(=O)(=O)N(C)C4CCCCC4)cc3c2=O)CC1,4,0.8,3.9,i,0.69,0.4,2,5,10,-1.8
Cc1cccc2c1CC(C)(C)N/C2=C\C(N)=O,-16,0.4,6.2,nt,0.67,-2.1,-7,nt,nt,nt
COc1c(OC(C)=O)c(=O)n2c3ccccc3c3ccnc1c32,0,-0.2,-116,i,0.67,-2.3,11,nt,nt,nt
CCOC(=O)Cn1nc(C)n(-c2ccc(Cl)cc2)c1=O,-22,-0.6,-1.3,i,0.71,-0.5,-3,18,22,4.1
COc1ccc(CNC(=O)CC23CC4CC(CC(C4)C2)C3)cc1OC,-8,0.6,4.6,i,0.67,-1.9,-3,-5,-19,2.8
Cc1cc(NC(=O)C(C)SCC(=O)Nc2cc(C(F)(F)F)ccc2N2CCCCC2)no1 (centres undefined),25,-0.2,4.2,i,0.7,2.6,2,-12,-39,12
CNCCCOc1ccc(C)cc1Br,-6,1.1,5.4,nt,0.66,nt,-1,nt,nt,nt
COc1ccc(CC(=O)NNC(=O)c2cc(C)oc2C)cc1OC,-13,0.9,-0.5,i,0.62,-15,-1,7,13,-1.7
COc1ccc(-c2noc(N3CCC(C(=O)Nc4cc(OC)c(OC)c(OC)c4)CC3)n2)cc1,-28,1.3,6.0,i,0.71,0.0,-1,4,9,-1.8
Cc1ccc(C)c(NC(=O)CN(C)C(=O)c2cccc(Oc3ccccc3)c2)c1,nt,0.0,-2.2,i,0.7,3.1,-2,-28,-68,-1.2
COc1ccc(N2CCN(C(=O)c3cc(C4CC4)nn3-c3ccccc3)CC2)cc1,nt,nt,-2.2,i,0.64,2.2,nt,nt,nt,nt
CCN(CC)C(=O)c1ccc2c3c(cccc13)C(=O)N(CCc1ccc(OC)c(OC)c1)C2=O,7,-0.3,5.8,nt,0.67,nt,6,nt,nt,nt
CC(=O)N(C)N(C)c1cc(C)nc(N)n1,-2,-0.5,4.5,i,0.65,-2.1,-15,9,-2,-0.7

# Carrying on:
SMILES,T cruzi repl,A1 inh,UCH37 DUB inh,FGF22 binding,Ecoli growth,MLL AF4-AF9 inh,Beta cell apopt,Ecoli rRNA inh,Ecoli rRNA inh OD600,Ecoli rRNA inh RFP
COCCCNC(=O)C1CC(=O)N(CCc2ccc(F)cc2)C1 (centres undefined),-6,-0.2,6.1,i,0.61,0.7,0,7,3,1.1
O=C(Cn1nc(-c2ccc(Cl)cc2)ccc1=O)N1CCN(c2ccccc2)CC1,9,1.0,3.5,nt,0.68,nt,4,nt,nt,nt
C/C(=N\NC(=O)c1ccccc1)C1C2C=CC(C2)C1(C)C (centres undefined),7,-0.4,nt,i,nt,-1.1,nt,5,14,0.8
CCN1CCN(C2=NC(=O)/C(=C/c3ccc(C)o3)S2)CC1,-1,0.2,4.1,nt,0.74,nt,3,nt,nt,nt
Cc1ccc(S(=O)(=O)N(C)CC(=O)Nc2cccc3c2CCCC3)cc1,-8,0.8,-5.5,nt,0.75,nt,0,nt,nt,nt
CCOC(=O)C1=C(N)Oc2ccc3ccccc3c2C1c1cccc(O)c1 (centres undefined),20,1.0,2.8,i,0.64,1.9,47,-26,-34,17
Cn1nc(C(F)(F)F)c2cc(C(=O)O)sc21,-13,0.1,1.7,i,0.71,0.2,-1,3,2,-0.5

# Assay outcomes as filed in PubChem BioAssay.
